Source: PubChem BioAssay
KAT2A inh – GCN5L2 (KAT2A) acetyltransferase inhibition; Q92830; GCN5L2 HAT assay, ThioGlo1 CoA-SH fluorescence; Potency, µM (series often up to 58.9 µM), for inactives: top-dose activity change, negative = inhibition, most hits filed as inhibitors; 0.21% of 390,000 active; AID 504327; active = well fitted inhibition curve with a large enough effect; inconclusive = small, poorly fitted or top-dose-only effect, or another doubt; inactive = no such curve, though single readings can be large or run the other way
Target sequence (Q92830 whole entry, looked up): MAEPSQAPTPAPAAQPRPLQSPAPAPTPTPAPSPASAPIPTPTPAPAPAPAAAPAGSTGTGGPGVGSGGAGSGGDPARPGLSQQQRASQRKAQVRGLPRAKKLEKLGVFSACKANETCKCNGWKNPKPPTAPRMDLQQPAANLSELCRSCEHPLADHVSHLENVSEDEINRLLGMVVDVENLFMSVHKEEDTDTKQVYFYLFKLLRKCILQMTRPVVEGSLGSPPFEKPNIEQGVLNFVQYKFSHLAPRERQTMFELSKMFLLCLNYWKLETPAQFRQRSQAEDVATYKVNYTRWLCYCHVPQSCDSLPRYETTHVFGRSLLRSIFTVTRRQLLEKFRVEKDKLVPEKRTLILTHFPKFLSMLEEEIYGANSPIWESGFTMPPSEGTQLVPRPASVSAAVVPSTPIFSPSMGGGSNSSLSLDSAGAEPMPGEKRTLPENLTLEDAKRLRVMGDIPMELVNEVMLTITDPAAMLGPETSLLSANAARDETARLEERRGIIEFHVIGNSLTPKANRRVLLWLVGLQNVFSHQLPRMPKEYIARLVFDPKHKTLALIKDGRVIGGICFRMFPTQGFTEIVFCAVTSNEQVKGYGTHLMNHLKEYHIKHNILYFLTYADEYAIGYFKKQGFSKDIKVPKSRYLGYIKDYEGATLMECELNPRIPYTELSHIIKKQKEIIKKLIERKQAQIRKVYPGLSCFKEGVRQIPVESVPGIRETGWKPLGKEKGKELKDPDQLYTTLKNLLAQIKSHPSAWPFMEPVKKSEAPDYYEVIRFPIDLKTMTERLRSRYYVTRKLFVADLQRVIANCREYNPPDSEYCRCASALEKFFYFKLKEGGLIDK
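Fluorescence readout, Ex340nm/Em540nm: ThioGlo1 (50uM final) reacts with free CoA thiol released as 20nM GCN5L2 acetylates H3(1-25) peptide (75uM) using acetyl-CoA (70uM). Compound and enzyme sat 15 min beforehand; 20 min room-temperature reaction.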
An asterisk follows results filed as active; ? = inconclusive; & = joins results of further samples. % is scaled to controls: 0 for no effect and ±100 for the full control effect; potency is read from the fitted curve at half-maximal effect.

SMILES	KAT2A inh
Cc1cccc(C(=O)Nc2ccccc2SCc2cc(=O)c3cccc(C)c3[nH]2)c1	-4%
O=C(NCC1CCCO1)c1ccc(N2C(=O)C3CCCCC3C2=O)cc1 (stereo unspecified)	-10%
COc1ccc(-c2sc3ccc(N4CCOCC4)cc3c2C#CCO)cc1	-7%
COCCNC(=O)C1CC(c2ccccc2C(F)(F)F)=NO1 (stereo unspecified)	1%
O=C(Cc1ccccc1)NNC1CC(=O)N(c2ccc(Cl)cc2)C1=O (stereo unspecified)	2%
CCOc1ncccc1C(=O)Nc1nnc(C2CC2)s1	0%
O=C(Nc1cccc(S(=O)(=O)N2CCOCC2)c1)C1CC1	1%
COc1ccc(Nc2sc(C(=O)c3ccc(Cl)cc3)c(N)c2C(=O)Nc2ccccc2OC)cc1	-2%
CCN(CC)c1ccc(NC(=O)c2cnccn2)cc1S(=O)(=O)Nc1ccc(OC)cc1	-13%
Cn1c(CCNC(=O)C2CCCCC2)nc2cc([N+](=O)[O-])ccc21	-6%
Cc1ccc(N2CC(c3nc(-c4ccc(Cl)cc4)no3)CC2=O)cc1F (stereo unspecified)	3%
COc1cc(C(=O)Nc2ccc(C(=O)c3cccs3)cc2)cc(OC)c1OC	-29%
COCCSc1ccccc1C(=O)N1CCN(c2ccccc2OC)CC1	-1%
CN(C)c1ccc(C(=O)Nc2nnc(-c3ccc(Cl)cc3)o2)cc1	-5%
CCCCn1ccnc1C(=O)c1cccc(S(=O)(=O)N2c3ccccc3CC2C)c1 (stereo unspecified)	-11%
COc1cc(-c2noc(-c3cc4cccc(C)c4oc3=O)n2)cc(OC)c1OC	-7%
COCCCNC(=O)CCCn1c(=O)c2cccn2c2ccccc21	-7%
O=C(NC(NC(=S)Nc1c(Cl)cccc1Cl)C(Cl)(Cl)Cl)OCc1ccccc1 (stereo unspecified)	-12%
Brc1cnc(N2CCCC2)nc1N1CCOCC1	-1%
CCOC(=O)c1noc2nc(C)n(CC(=O)Nc3ccc(Br)cc3C)c(=O)c12	0%
Cc1ccc(NC(=O)CCNS(=O)(=O)c2ccc(OC(F)(F)F)cc2)c(O)c1	2%
O=C(COc1ccc(Cl)cc1)Nc1ccc2c(c1)nc1n2CCOC1	-7%
O=C(Nc1cccc(C(F)(F)F)c1)c1cccc(C(=O)Nc2cccc(C(F)(F)F)c2)c1	-4%
CCOc1ccc(C(=O)c2oc3ccccc3c2NC(=O)Cc2coc3ccc(CC)cc23)cc1	-7%
Cc1cccc(C(=O)NNC(=S)NC(=O)c2cccs2)c1	-20%
CCc1ccc(-n2nc(C)c3c(C(=O)N4CCN(c5ccccc5)CC4)cc(C)nc32)cc1	2%
Cn1c(=O)oc2cc(S(=O)(=O)N3CCC(C(=O)Nc4ccc(F)c(Cl)c4)CC3)ccc21	2%
COc1cc(/C=N/n2cnnc2)ccc1OS(=O)(=O)c1ccccc1[N+](=O)[O-]	0%
CC1(C)N=C(SCc2ccccc2Cl)c2ccccc2N1	10%
CC(=O)C(Sc1nnnn1-c1ccccc1)C(C)=O	-27%
COc1ccc(N2CCN(C(=O)CCc3ccc(S(=O)(=O)NC(C)(C)C)cc3)CC2)cc1	-1%
COc1ccc(C(CNC(=O)CN(C)S(=O)(=O)c2ccc(C)cc2)N2CCCC2)cc1 (stereo unspecified)	-1%
Cc1cccc(N2CCN(C(=O)C3CCC(=O)N(Cc4ccccc4F)C3)CC2)c1C (stereo unspecified)	0%
Cc1ccc(C(=O)Nc2cccnc2Oc2ccc(Cl)cc2)cc1	?
COc1ccc(Cl)cc1-c1nc(N)nc(NC2CCCCC2)n1	-1%
COC(=O)c1nc2n(n1)C(c1ccc(OC)c(OC)c1OC)C1=C(CCCC1=O)N2 (stereo unspecified)	2%
CCc1ccc([C@@H]2C[C@H]3CN(Cc4ccccc4OC)C(=O)[C@]34CCCN24)cc1	-12%
O=C(Cn1cc2c(n1)CCCC2)NCCc1ccccc1	-1%
CCS(=O)(=O)N1CCN(C(=O)COc2ccc(-c3ccccc3)cc2)CC1	0%
Cc1ccc(C2CCN(C(=O)c3cnn(-c4ccc(C)cc4)c3C3CCN(C(=O)OC(C)(C)C)CC3)C2)cc1 (stereo unspecified)	15%
Nn1c(SCC(=O)Nc2ccc(N3CCOCC3)cc2)nnc1-c1ccccc1F	-1%
COc1cccc(N2CC(C(=O)Nc3nnc(SCC(=O)NCC4CCCO4)s3)CC2=O)c1 (stereo unspecified)	-27%
COc1ccc(NC(=O)CCCn2c(=O)c3sccc3n(Cc3ccccc3)c2=O)cc1	10%
Cc1cc(NC(=O)C2C3C(=O)N(Cc4ccc(Cl)cc4)C(C(=O)NC4CCCCC4)C34C=CC2(C)O4)no1 (stereo unspecified)	-4%
CC(C)(OC(=O)c1ccc(C#N)cc1)c1cc2ccccc2c(=O)o1	-1%
O=C(NC1CCCC1)C(c1ccc(F)cc1)N(C(=O)c1csnn1)c1ccccc1 (stereo unspecified)	5%
COCCn1c(=N)c(S(=O)(=O)c2ccc(F)cc2)cc2c(=O)n3ccccc3nc21	-1%
COc1ccc(OC)c(C2C(C(=O)c3ccco3)=C(O)C(=O)N2CC2CCCO2)c1 (stereo unspecified)	-3%
Cc1ccc(-n2c(C)nc3c(cnn3-c3ccc(F)cc3)c2=O)cc1C	?
CN(C)C(CNC(=S)Nc1cccc(Cl)c1)c1ccccc1 (stereo unspecified)	-3%
O=C(Oc1cccc2cccnc12)c1ccccc1	5%
CCC(=O)Nc1ccc2nc3c(=O)n(C)c(=O)n(C)c3nc2c1	-9%
COC(=O)c1sc(S(=O)(=O)N2CCCCC2C)c(C(=O)OC)c1C (stereo unspecified)	-4%
CN(C(=O)Cn1nnc(-c2ccc(F)cc2)n1)C1CCS(=O)(=O)C1 (stereo unspecified)	-6%
O=c1[nH]cnc2ccccc12	8%&-2%
C=C[C@@H]1c2ccccc2N(S(=O)(=O)c2ccc(C)cc2)[C@H](c2ccccc2C(F)(F)F)C1(C#N)C#N	-7%
O=C(N/N=C/c1ccco1)c1ccccn1	-4%
CC1(C)CC(=O)C2=C(C1)NC(=O)NC2c1ccccc1 (stereo unspecified)	-2%
Cc1ccc(CNCC(=O)Nc2cccc(S(=O)(=O)NC3=NCCCCC3)c2)cc1	1%
COc1cccc(/C=C2\N=C(c3c(-c4ccccc4)noc3C)OC2=O)c1	-3%

(list continues)
SMILES	KAT2A inh
COCCCn1c(C)nnc1SCC(=O)NNC(=O)COc1ccc(Cl)cc1	-5%
COc1ccc(-c2nc3sc(CCNC(=O)C(=O)Nc4cccc(NC(C)=O)c4)c(C)n3n2)cc1	-17%
Clc1ccc(Nc2c(-c3cccs3)nc3ccc(Cl)cn23)cc1	1%
Cc1nnc2ccc(-c3cccc(NC(=O)c4ccc(Cl)nc4)c3)nn12	-18%
Cc1ccc(NC(=S)N2CCN(c3nccc(C(F)(F)F)n3)CC2)c(C)c1	-1%
CCCCCCC1CC(CSC(=N)N)OC1=O (stereo unspecified)	-2%
CC(/C=C/c1ccc2c(c1)OCO2)=N\NC(=O)c1ccccc1	-14%
CS(=O)(=O)N(CC(=O)Nc1ccccc1C(=O)N1CCOCC1)c1ccccc1	-2%
COc1ccc(CNCCC(c2ccccc2)C2CCOC(C)(C)C2)cc1 (stereo unspecified)	-10%
CCOc1ccccc1N1CCN(C(=O)c2cc(S(=O)(=O)N3CCCCC3)ccc2C)CC1	4%
Cc1csc(C(C)N(C)C(=O)c2ccc(OC3CCN(Cc4ccccn4)CC3)cc2)n1 (stereo unspecified)	1%
O=C1CCCN1S(=O)(=O)c1ccc(F)cc1	-4%
COc1ccccc1/C=N/N(C(C)=O)c1nc(-c2ccc(F)cc2)cs1	13%
Nc1ccn([C@H]2CC[C@@H](CO)O2)c(=O)n1	-4%&-10%&5%&1%&-3%
COc1ccc(C(=O)O)cc1S(=O)(=O)Nc1cccc(C(F)(F)F)c1	-3%
FC(F)(F)C(Cl)Br (stereo unspecified)	22%
CC1(C)CC2CC(C)(CN2/C=N/c2sc3c(c2C#N)CC(C)(C)NC3(C)C)C1 (stereo unspecified)	-15%
COc1ccccc1OCCCOc1c(Cl)cc(C)cc1Cl	-5%
CC1CN(c2cc(=O)n(-c3ccc(Cl)cc3)c(=O)[nH]2)CC(C)O1 (stereo unspecified)	-2%
COc1ccc(OC)c(NC(=O)c2ccc(NC(C)=O)cc2)c1	-6%
O=S(=O)(NCCc1csc(-c2ccccc2)n1)c1ccc2c(c1)OCCO2	-6%
CCOC(=O)c1c(CN2CCOCC2)n(-c2ccccc2)c2ccc(O)cc12	-3%
CCOCCCNC(=O)c1ccc2c(c1)OCO2	-12%
CCN(CC)C(=O)CSc1nnc(-c2ccco2)n1Cc1ccco1	3%
CCOc1ccc(CCNC(=O)c2ccc3c(c2)c(C)c(C)n3C)cc1	16%
Cc1ccc2c(c1)c(-c1ccccc1)nc1nncn12	-7%
CCn1c(-c2ccsc2)nc2c1c(=O)[nH]c(=O)n2Cc1ccccc1	1%
COc1cccc(NC(=O)CN(C)C(C)C(=O)Nc2ccc(S(=O)(=O)N3CCCC3)cc2)c1 (stereo unspecified)	3%
CC(C(=O)NC1CC1)c1ncc(C(F)(F)F)cc1Cl (stereo unspecified)	0%
COc1ccccc1N(C(=O)CNC(=O)c1ccco1)C(C(=O)NC1CCCCC1)c1ccncc1 (stereo unspecified)	3%
CC(C)c1ccc(C(=O)NCCCN2CCN(CCCNC(=O)c3ccc(C(C)C)cc3)CC2)cc1	-2%
COc1ccccc1CN1CC(C(=O)N2CCC(C(=O)c3ccccc3)CC2)CCC1=O (stereo unspecified)	0%
O=C(Nc1ccccc1N1CCCC1)c1cc(=O)[nH]c2ccccc12	1%
CN(CC(=O)NC1CCCCCCC1)S(=O)(=O)c1cccc2cccnc12	-3%
Cc1cccc(N2CCN(c3nc4ccccc4c4nc(-c5ccccc5)nn34)CC2)c1C	0%
CC(C)c1ccc(NC(=O)c2ccc3c(c2)CCN3S(=O)(=O)c2ccccc2)cc1	-9%
COc1ccc(-c2nc3ccc(Cl)cn3c2NC2CCCCC2)cc1SC1CCCCC1	-1%
CC(=O)N1CCc2cc(S(=O)(=O)NCCC(=O)Nc3cccc(C)c3C)ccc21	-4%
Cn1nc(-c2ccc(C(=O)NCCO)cc2)c2ccccc2c1=O	-6%
COC(=O)C(Cc1ccc(O)cc1)NC(=O)C1CCN(S(=O)(=O)c2ccc(C)cc2)CC1 (stereo unspecified)	1%

Copied from the results shown (19 entries):
SMILES	KAT2A inh
CC1CN(c2cc(=O)n(-c3ccc(Cl)cc3)c(=O)[nH]2)CC(C)O1 (stereo unspecified)	-2%
COc1ccc(OC)c(NC(=O)c2ccc(NC(C)=O)cc2)c1	-6%
O=S(=O)(NCCc1csc(-c2ccccc2)n1)c1ccc2c(c1)OCCO2	-6%
CCOC(=O)c1c(CN2CCOCC2)n(-c2ccccc2)c2ccc(O)cc12	-3%
CCOCCCNC(=O)c1ccc2c(c1)OCO2	-12%
CCN(CC)C(=O)CSc1nnc(-c2ccco2)n1Cc1ccco1	3%
CCOc1ccc(CCNC(=O)c2ccc3c(c2)c(C)c(C)n3C)cc1	16%
Cc1ccc2c(c1)c(-c1ccccc1)nc1nncn12	-7%
CCn1c(-c2ccsc2)nc2c1c(=O)[nH]c(=O)n2Cc1ccccc1	1%
COc1cccc(NC(=O)CN(C)C(C)C(=O)Nc2ccc(S(=O)(=O)N3CCCC3)cc2)c1 (stereo unspecified)	3%
CC(C(=O)NC1CC1)c1ncc(C(F)(F)F)cc1Cl (stereo unspecified)	0%
COc1ccccc1N(C(=O)CNC(=O)c1ccco1)C(C(=O)NC1CCCCC1)c1ccncc1 (stereo unspecified)	3%
CC(C)c1ccc(C(=O)NCCCN2CCN(CCCNC(=O)c3ccc(C(C)C)cc3)CC2)cc1	-2%
COc1ccccc1CN1CC(C(=O)N2CCC(C(=O)c3ccccc3)CC2)CCC1=O (stereo unspecified)	0%
O=C(Nc1ccccc1N1CCCC1)c1cc(=O)[nH]c2ccccc12	1%
CN(CC(=O)NC1CCCCCCC1)S(=O)(=O)c1cccc2cccnc12	-3%
Cc1cccc(N2CCN(c3nc4ccccc4c4nc(-c5ccccc5)nn34)CC2)c1C	0%
CC(C)c1ccc(NC(=O)c2ccc3c(c2)CCN3S(=O)(=O)c2ccccc2)cc1	-9%
COc1ccc(-c2nc3ccc(Cl)cn3c2NC2CCCCC2)cc1SC1CCCCC1	-1%

The list goes on:
SMILES	KAT2A inh
CC1=CC2=NC(=O)/C(=C\c3cccn3CCOc3cc(C)ccc3C)C(=N)N2O1	-9%
O=c1cc2c(nn1Cc1c(Cl)cccc1Cl)-c1ccccc1CC2	-15%
C(#CCN1CCC(Cc2ccccc2)CC1)COCCOCc1ccccc1	-4%
O=C1CS/C(=N/N=C/c2ccc(OS(=O)(=O)c3ccccc3)cc2)N1	1%
O=C(CCC(=O)c1cccs1)NCC(=O)Nc1ccc(F)c(F)c1F	-1%
Cc1ccc(NC(=O)c2ncn(CC(=O)NCC(C)c3ccccc3)n2)cc1C (stereo unspecified)	1%
Cc1ccc(CNC(=O)c2oc3ccc(S(=O)(=O)N4CCCC(C)C4)cc3c2C)cc1 (stereo unspecified)	-10%
Cn1cccc1CC(=O)N/N=C/c1cccc2ccccc12	-3%
O=C(Cn1nc(Cc2cccnc2)c2ccccc2c1=O)N1CCN(C(=O)c2ccco2)CC1	-5%
Cc1cccc(C)c1-n1c(C)cc(/C=N\NC(=O)CC(=O)NC2CCCCC2)c1C	-5%
Cn1cc(S(=O)(=O)N2CCCCCC2)cc1C(=O)Nc1ccccc1F	6%
CCn1cc(C(=O)NCCCN2CCC(C)CC2)c(=O)c2cc(S(=O)(=O)N3CCOCC3)ccc21	-2%

Not all compounds are listed; most or all hits stand in other tables.
